Source: PubChem BioAssay (National Center for Advancing Translational Sciences (NCATS))
VACV mCherry inh: inhibitors of vaccinia virus infection (mCherry reporter signal); Vaccinia virus mCherry reporter infection, fluorescence; about a quarter of the inactives have no number; Potency, µM (doses to about 36.5 µM), for the others: top-dose activity change, negative = inhibition, actives largely listed as inhibitors; 310,000 tested, 0.63% active; active = well fitted inhibition curve with a large enough effect; inconclusive = small, poorly fitted or top-dose-only effect; inactive = no such curve, though single readings can be large or run the other way; tested in A549 cells; also: nearly all actives have a fitted effect of over 35% in size; inactives centre near -10
VACV Venus inh: inhibitors of vaccinia virus (Venus reporter); Vaccinia virus Venus reporter expression, fluorescence; Potency, µM (titrated, usually from 36.5 µM), for inactives: at the top dose activity change, negative = inhibition, hits mostly inhibitors; 330,000 tested, 0.46% active; active means well fitted inhibition curve with a large enough effect; inconclusive means small, poorly fitted or top-dose-only effect; inactive means no such curve, though single readings can be large or run the other way; tested in A549 cells; also: nearly all actives have a fitted effect of over 30% in size; inactives centre near -10
An asterisk follows results filed as active; i = inactive; ? = inconclusive; nt = no result given; & = joins results of further samples. % is scaled to controls: 0 for no effect and ±100 for the full control effect; potency is read from the fitted curve at half-maximal effect.

| Structure | VACV Venus inh | VACV mCherry inh |
| --- | --- | --- |
| COc1ccc(-c2[nH]ncc2CN2CCN(C(=O)c3cccs3)CC2)c(F)c1 | -14% | -3% |
| CCOCCCNC(=O)C1CCCN1C(=O)Nc1ccccc1[N+](=O)[O-] (centres undefined) | -8% | -26% |
| C/C(=N\NC(=O)CNC(=O)c1ccccc1Br)c1ccco1 | -9% | -17% |
| CC1(C(=O)NCCN2CCOCC2)C=CCN1C(=O)c1ccccc1 (centres undefined) | -4% | i |
| CCCNC(=O)c1ccc(-n2c(-c3ccccc3)cc3c2CCCCC3)cc1 | -9% | i |
| CCOC(=O)CNC(c1ccccc1)c1cc(Br)ccc1NC(=O)c1ccc(Cl)cc1 (centres undefined) | 6% | -8% |
| O=C(CN1CCN(c2cccc(Cl)c2)CC1)Nc1ccc([N+](=O)[O-])cc1C(=O)Nc1ccccc1F | -12% | i |
| O=c1oc2cc(Cl)ccc2n1CSc1nc2ccccc2s1 | ? | nt |
| O=C(O)CC1OCC=C2CN3CCC45C6=CC(=O)C(=O)C([N+](=O)[O-])=C6NC4C1C2CC35 (centres undefined) | -5%&-4% | -14% |
| Cc1nn(-c2ccc(C(=O)O)cc2)c(=O)c2ccccc12 | ? | -10% |
| CC(C)(C)NCCOCCOc1ccccc1-c1ccccc1 | -23% | -2% |
| CCOC(=O)C(NC(=O)c1cccc(Cl)c1)(OCc1ccc(F)cc1)C(F)(F)F (centres undefined) | -13% | -12% |
| O=C(Nc1ccccc1)c1cc(C2CCCN(C(=O)c3cccs3)C2)on1 (centres undefined) | 7% | i |
| Fc1ccc(C(c2nnnn2Cc2cccs2)N2CCN(c3ccccc3)CC2)cc1 (centres undefined) | -19% | -24% |
| CCCOc1nc2c(c(=O)n(C)c(=O)n2C)n1CCC | -10% | i |
| O=C(NCC1CCC2(CCN(Cc3ccccc3O)CC2)O1)C1CCCO1 (centres undefined) | -3% | -10% |
| COc1cccc(CNS(=O)(=O)c2ccc3c(c2)oc(=O)n3C)c1 | -6% | i |
| CC(=O)c1c(C)oc2c1cc(NS(=O)(=O)c1ccc(Cl)c(C)c1)c1ccccc12 | -4% | -11% |
| Cc1ccc(S(=O)(=O)N2CCC(C(=O)OCc3ccccc3)CC2)cc1C | -9% | -11% |
| COC(=O)CCCC1=CC2=CC(=O)C(C)(OC(=O)c3cccs3)C(=O)C2=CN1Cc1ccco1 (centres undefined) | 0% | -3% |

The list goes on; it opens with the 4 that closed the last part.
| Structure | VACV Venus inh | VACV mCherry inh |
| --- | --- | --- |
| COc1cccc(CNS(=O)(=O)c2ccc3c(c2)oc(=O)n3C)c1 | -6% | i |
| CC(=O)c1c(C)oc2c1cc(NS(=O)(=O)c1ccc(Cl)c(C)c1)c1ccccc12 | -4% | -11% |
| Cc1ccc(S(=O)(=O)N2CCC(C(=O)OCc3ccccc3)CC2)cc1C | -9% | -11% |
| COC(=O)CCCC1=CC2=CC(=O)C(C)(OC(=O)c3cccs3)C(=O)C2=CN1Cc1ccco1 (centres undefined) | 0% | -3% |
| CCN(CC)C(=O)CSc1nc(-c2ccc(C)cc2)nc2c1Cc1c(CO)cnc(C)c1O2 | -21% | -16% |
| COc1cccc(NC(=O)c2ccc3c(c2)N(CC(=O)N2CCOCC2)C(=O)C(C)(C)O3)c1 | -9% | -11% |
| CCCN(CC(=O)Nc1ccccc1OC)C(=O)c1nc2nc(C)ccn2n1 | 1% | -12% |
| O=S(=O)(c1cc(Cl)ccc1Cl)N1CCCC1 | -19% | nt |
| NC(=O)N/N=C/c1cccc(OCc2ccc(F)cc2)c1 | -2% | i |
| c1ccc(-c2cn(C[C@H]3CC[C@@H]([C@@H]4CC[C@H](Cn5cc(-c6ccccn6)nn5)O4)O3)nn2)nc1 | -4% | i |
| COc1ccc(NC(=O)N(C)C[C@H]2Oc3ccc(NC(=O)NC4CCCCC4)cc3C(=O)N([C@H](C)CO)C[C@@H]2C)cc1 | -14% | -1% |
| Cc1ccc(C(=O)Nc2nc(=O)n(C(=O)C3CC3)s2)cc1 | -2% | 0% |
| CSc1nc(Sc2ccccc2Cl)c2ccccc2n1 | -20% | nt |
| COc1ccc(OC)c(NC(=O)CN2CCCN(Cc3ccccc3Cl)S2(=O)=O)c1 | -12% | -17% |
| Cc1cc(C)c(C(=O)CSc2nc(C)cc(=O)[nH]2)c(C)c1 | -20% | -22% |
| CCC(C)N(C(=O)c1csnn1)C(C(=O)NCc1ccc(F)cc1)c1ccccc1F (centres undefined) | 6% | -29% |
| O=C(CN1C(=O)CCS(=O)(=O)c2ccccc21)Nc1ccc2c(c1)OCCO2 | -11% | nt |
| CNC(=O)c1c(NC(=O)C2=COCCO2)sc(C)c1C | -11% | -8% |
| Cc1cccc(Nc2nnc(SCC(=O)Nc3ccc(C(=O)O)cc3)s2)c1 | -5% | 2% |
| CCc1c(N)nc(N)nc1Nc1ccccc1Cl | -16% | ? |
| CCN(CC(=O)NC(C)C)C(=O)C(CCSC)NC(=O)c1ccccc1OC (centres undefined) | -24% | -12% |
| COc1ccc(-n2c(=O)c3c4c(sc3n(CC(=O)N3CCCCC3C)c2=O)CCC4)c(OC)c1 (centres undefined) | -9% | -9% |
| COc1ccc(CNC(=O)c2ccc(NC(=O)N3CCSc4ccccc43)cc2)cc1 | -7% | -6% |
| CC(C)Cn1c(=O)c2sccc2n2c(CCCC(=O)NC3CCN(Cc4ccccc4)CC3)nnc12 | -5% | -14% |
| Cc1ccc(N2CC(NC(=O)C(=O)c3c(C)[nH]c4ccccc34)CC2=O)cc1C (centres undefined) | -27% | -10% |
| CCOC(=O)Nc1nnc(CCc2ccccc2)s1 | -11% | i |
| COc1cc2cc(-c3ccc(OC)c(OC)c3C)nc(N)c2cc1OC | -29% | ? |
| O=C(Nc1ccccc1Cl)Nc1cccnc1Cl | -1% | i |
| Cc1ccc(-c2[nH]ncc2CNCc2ccc(CN(C)C)cc2)cc1 | -15% | -17% |
| CC(N)(COP(=O)(O)Oc1ccccc1)C(=O)O (centres undefined) | -8% | -1% |
| O=C(COc1ccc(Cl)cc1)OCc1ccc(Cl)cc1 | 7% | -9% |
| COc1cccc(CNC(=O)C2CCC(=O)N(CC3CCCCC3)C2)c1OC (centres undefined) | -6% | -8% |
| O=C1C[C@@H](c2ccc(O[C@@H]3O[C@H](CO)[C@@H](O)[C@H](O)[C@H]3O)cc2)Oc2cc(O)ccc21 | 3% | -20% |
| O=C(CSc1nnc(C2COc3ccccc3O2)o1)NC1CCCCC1 (centres undefined) | -6% | 1% |
| COc1ccc(OCC(=O)OCc2cc(=O)n3nc(C4CCCCC4)sc3n2)cc1 | -4% | -7% |
| COc1ccc(C)cc1NC(=O)c1nnn(CCc2ccccc2)c1N | -8% | -22% |
| COc1cc(N)c(C(=O)c2nccc3cc(OC)c(OC)cc23)cc1OC | -9% | -14% |
| CCSc1ccc(-c2nn(-c3ccccc3)cc2/C=C(/C#N)C(=O)NC)cc1 | -23% | i |
| CCN1C(=O)/C(=C/c2nc3ccccc3c(=O)[nH]2)c2ccccc21 | 1% | i |
| Cc1ccc(N2CCN(C(=O)Nc3cn(CC(C)C)c(=O)c4ccccc34)CC2)c(C)c1 | -27% | ? |
| O=C(Cc1cccs1)NCCc1csc(-c2ccccc2)n1 | -5% | ? |
| Cc1ccc(NC(=O)Cn2nnc(-c3nc(-c4ccc(Cl)cc4)no3)c2N)cc1C | -6% | -6% |
| COc1ccc(CNC(=O)CCNS(=O)(=O)c2ccc3c(c2)oc(=O)n3C)cc1 | -3% | -17% |
| O=[N+]([O-])c1ccc(Oc2cccc3cccnc23)c([N+](=O)[O-])c1 | -24% | ? |
| O=C(CN1C(=O)NC2(CCCCCCC2)C1=O)NCc1ccc2c(c1)OCO2 | -13% | -16% |
| C/C=C/c1ccc(OCC(=O)O)c(OC)c1 | -2% | i |
| OCCNc1c2ccccc2nc2c(F)c(F)c(F)c(F)c12 | 4% | -8% |
| CCCc1cc(=O)[nH]c(SCC(=O)N(Cc2ccccc2)C(C)C)n1 | -5% | -15% |
| Cc1ccsc1C(=O)N1CCC1(C)C(=O)Nc1ccc2c(c1)OCCO2 (centres undefined) | 2% | 29% |
| Cc1c(NC(=O)COc2cccc(Br)c2)c(=O)n(-c2ccccc2)n1C | 0% | -3% |
| CC(C)[C@H](NS(=O)(=O)c1ccccc1)C(=O)Nc1nccs1 | -11% | -20% |
| O=C(c1ccc(Cl)cc1)N1CCN(c2ccc(F)cc2)CC1 | -22% | -25% |
| CC1CCCC(C)N1c1nnc(NC(=O)Cn2c(=O)oc3ccccc32)s1 (centres undefined) | -9% | ? |
| COC(=O)C1=C(C)N=C2SCCC(=O)N2C1c1ccc(OCc2ccccc2)c(OC)c1 (centres undefined) | 3% | -1% |
| Cc1ccc(NC(=O)C2CCCN2C(=O)NC2CCCCC2)cc1F (centres undefined) | -5% | -10% |
| CC1(C)CC[C@]2(C(=O)O)[C@H](O)C[C@]3(C)C(=CCC4[C@@]5(C)C[C@H](O)[C@H](O)[C@@](C)(CO)C5CC[C@]43C)[C@@H]2C1 (some centres undefined) | -2% | i |
| COc1ccc(-c2csc(NC(CO)c3nc4ccccc4n3CCCO)n2)cc1 (centres undefined) | -30% | -15% |
| CC(C)CCN1CCN=C1N(C)C | -8% | -13% |
| NNc1ccc2nnc(C(F)(F)C(F)(F)C(F)(F)F)n2n1 | -11% | ? |
| O=C(COC(=O)c1cc(Br)ccc1O)NNC(=O)c1ccc(Cl)cc1 | -10% | -12% |
| O=C(CNC(=O)c1cccs1)OCC(=O)c1cccs1 | -3% | -10% |
| CCOC(=O)N1CCN(C(=O)CNCc2cccs2)CC1 | -2% | -4% |
| COc1cc(NC(=O)c2c(C)oc3c2C2=NCCN2C=N3)cc(OC)c1OC | -3% | -5% |
| O=c1cc(N2CCN(c3ccc(F)cc3)CC2)[nH]c(=O)n1C1CCCCC1 | -16% | -21% |

Full records as entered above. Order of values: VACV Venus inh, VACV mCherry inh
O=C(c1ccc(Cl)cc1)N1CCN(c2ccc(F)cc2)CC1 in the list: -22%, -25%
Cc1ccc(NC(=O)C2CCCN2C(=O)NC2CCCCC2)cc1F (centres undefined) in the list: -5%, -10%

The list continues:
| Structure | VACV Venus inh | VACV mCherry inh |
| --- | --- | --- |
| CCOC(=O)Cc1cc(=O)n(-c2nc3ccccc3s2)[nH]1 | -2% | -14% |
| CCN(CC(=O)Nc1c(F)cccc1F)C(=O)CN1C(=O)C2CCCCC2C1=O (centres undefined) | -10% | -6% |
| Cc1ccc2c(c1)N(C(=O)CCC(=O)N1CCN(c3ccccc3)CC1)CCO2 | 14% | 4% |
| CC(=O)Nc1ccc(NC(=O)C2CCN(c3ccc(C(F)(F)F)cn3)CC2)cc1 | -8% | i |
| CCN1C(C(=O)c2ccccc2)=C(OC(=O)c2ccccc2OC)c2ccccc2S1(=O)=O | ? | ? |
| OC1(c2ccc(Cl)cc2)CCN(Cc2cn[nH]c2-c2ccccc2)CC1 | 1% | -12% |
| COC(=O)c1cc(Br)c(=O)n(CCc2ccc(O)cc2)c1 | -10% | nt |
| C=CCn1c(-c2ccco2)n[nH]c1=S | -12% | nt |
| CCc1ccc(OCC(=O)N/N=C\c2ccco2)c([N+](=O)[O-])c1 | -13% | -20% |
| Cc1ccc(CN2CCCC(C(=O)c3ccc4c(c3)OCO4)C2)cc1C (centres undefined) | -16% | ? |
| O=C(Nn1cnnc1)c1ccccc1CCc1ccccc1 | -7% | nt |
| CCc1nn(CC(=O)NCCCOC)c(=O)c2cc3ccccc3n12 | 1% | 3% |
| COc1ccc(OC)c(N2C(=O)NC(=O)/C(=C\c3ccc([N+](=O)[O-])s3)C2=O)c1 | 21% | 15% |
| CC(C)(O)c1cc2ccc(C#CCCN3C(=O)c4ccccc4C3=O)cc2c(=O)o1 | -28% | -15% |
| O=C(C1CCCCC1)N(Cc1cccnc1)c1nc2ccc(Cl)cc2s1 | -15% | i |
| CCCCCCc1c(O)nc(SCC(=O)O)[nH]c1=O | 3% | -14% |
| Cc1ccc(C(=O)N2CCN(c3ccccc3)CC2)cc1S(=O)(=O)N1CCOCC1 | -24% | -14% |
| Cc1ccc(N=N/C(=C\O)C(=O)c2ccncc2)cc1 | 0% | nt |
| CS(=O)(=O)c1ccc(Cl)c(NC(=O)CCCSc2ccccc2)c1 | -5% | -7% |
| CCNc1nc(OC)nc(SCC(N)=O)n1 | -7% | nt |
| COc1ccc(CN2CCN(Cc3ccc4cc(F)ccc4n3)CC2CCO)c(C)c1C (centres undefined) | -2% | 10% |
| O=C(O)[C@@H]1CCCN1C(=O)c1ccccc1N1C(=O)[C@@H]2Cc3c([nH]c4ccccc34)C(c3cccc(Cl)c3)N2C1=O (some centres undefined) | 3% | 10% |
| Cc1cc(C)c(/C=N/NC(=O)c2nnn(-c3nonc3N)c2CN2CCC(C)CC2)c(C)c1 | -16% | -29% |
| CCCc1cc2c(=O)c(-c3ccccn3)c(C)oc2cc1O | -15% | -32% |
| CCOC(=O)c1cnc2scnn2c1=O | -4% | -13% |
| O=C(COC(=O)c1ccc(NS(=O)(=O)c2cccs2)cc1O)NCc1ccccc1 | -13% | -10% |
| Cc1c(C(=O)Nc2ccc(C(C)C)cc2)sc2nc[nH]c(=O)c12 | -14% | -15% |
| CCCN(CCC)C(=O)Cn1c(=O)n(-c2ccc(Cl)cc2)c(=O)c2c3c(sc21)CCCCC3 | -7% | -7% |
| CC1(C)CC(=O)c2cnc(NCC3CCCO3)nc2C1 (centres undefined) | -7% | nt |
| CC1Cc2ccccc2N1S(=O)(=O)c1cccc(C(=O)NCc2ccncc2)c1 (centres undefined) | ? | -25% |
| O=C(CCS(=O)(=O)c1cc(Br)cc2c1N(C(=O)C1CC1)CC2)N1CCN(c2cccc(C(F)(F)F)c2)CC1 | -27% | -13% |
